# Screens as filed in PubChem.
# Marburg entry inh: Marburg virus entry inhibition. Potency, µM (doses to about 37.8 µM), for inactives: top-dose activity change, negative = inhibition, hits mostly inhibitors. Marburg virus pseudotyped entry inhibition, cell reporter; control for the full effect not named in the record; about a third of the inactives were read at about 46 µM. hit rate 1.8% among 300,000; active = well fitted inhibition curve with a large enough effect; inconclusive = small, poorly fitted or top-dose-only effect, or effect the other way; inactive = flat fitted curve, though single readings scatter; tested in HEK293 cells; about a fifth of its hits are not listed in these tables; note: % is set by controls: 0 for no effect and ±100 for the full control effect; luciferase read-out
# Lassa entry inh: Lassa virus entry inhibition | Lassa virus pseudotype entry inhibition, cell reporter; control for the full effect not named in the record | Potency, µM (series often up to 37.9 µM), inactives show top-dose activity change, negative = inhibition, usual class: inhibitors | hit rate 1.2% among 300,000 | AID 540256; active means well fitted inhibition curve with a large enough effect; inconclusive means small, poorly fitted or top-dose-only effect, or effect the other way; inactive means flat fitted curve, though single readings scatter; tested in HEK293 cells; note: % is set by controls: 0 for no effect and ±100 for the full control effect; nearly all actives have a fitted effect of over 50% in size; luciferase read-out
# RE007 growth inh: less growth of the S. pombe RE007 Vpr strain; Potency, µM (doses to about 92.2 µM), for the others: at the highest dose activity change, negative = less growth; S. pombe RE007 Vpr strain, BacTiter-Glo ATP luminescence, 24 h; control for the full effect not named in the record; hit rate 0.21% among 360,000; active = well fitted falling curve with a large enough effect; inconclusive = small, poorly fitted or top-dose-only effect; inactive = no such curve, though single readings can be large or run the other way;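 note: % is set by controls: 0 for no effect and ±100 for the full control effect; nearly all actives have a fitted effect of over 50% in size; the assay follows cell death caused by Vpr and the record does not say whether a fall means rescue or toxicity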
#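 Fission yeast strain RE007, carrying one chromosomally integrated HIV-1 vpr copy, was seeded at OD 0.01 in PMG+AL medium with 23 nL pinned compound. After 24 h at 30 °C and 99% humidity, viability was read by BacTiter-Glo luminescence.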
# NS1 function inh: blocks influenza NS1 protein function. hit rate 0.4% among 270,000. AID 2326. S. cerevisiae slowed by influenza A NS1, growth recovery by OD600. Potency, µM (top dose mostly 46.1 µM), for the others: top-dose activity, positive = more growth; note: actives are rising curves; nearly all actives have a fitted effect of over 50% in size
#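 Compounds were scored for reversing the slow growth caused by influenza A NS1 in S. cerevisiae, measured by optical density at 600 nm. Assay medium contained 2% galactose at pH 6.0; NS1-free yeast of the same strain were the positive control.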
# StopGo reporter: lowers the luciferase signal of an FMDV 2A StopGo reporter | human cells with a luciferase reporter of 2A StopGo recoding; control for the full effect not named in the record | Potency, µM (series often up to 57.9 µM), inactives show top-dose signal change, negative = less light | hit rate 1.2% among 410,000 | AID 1159524; active = well fitted falling curve with a large enough effect; inconclusive = small, poorly fitted or top-dose-only effect; inactive = no such curve, though single readings can be large or run the other way; tested in HEK293T cells; note: % is set by controls: 0 for no effect and ±100 for the full control effect; nearly all actives have a fitted effect of over 45% in size; luciferase light after 4 h
# SARS PLP yeast: blocks SARS-CoV papain-like protease in a yeast assay; Potency, µM (doses to about 32.9 µM), for inactives: at the highest dose activity, positive = growth rescue; S. cerevisiae expressing SARS-CoV PLpro, growth rescue; control for the full effect not named in the record; AID 485353; hit rate 0.19% among 330,000; note: 0% is about no effect; nearly all actives have a fitted effect of over 55% in size; growth read by luminescence after 48 h
# Cruzain noTriton: inhibitors of Trypanosoma cruzi cruzain without detergent; P25779; purified cruzain, Z-FR-AMC fluorescence, no detergent; Potency, µM, without a hit: max response, negative = inhibition, most hits filed as inhibitors; hit rate 2.3% among 200,000; active = well fitted curve in the direction sought with a large enough effect; inconclusive = small, poorly fitted or top-dose-only effect, or another doubt; inactive = no such curve, though single readings can be large; an effect the other way counts as inactive or inconclusive;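 note: plate controls were enzyme without inhibitor for no effect and buffer without enzyme for full effect; nearly all actives have a fitted effect of over 40% in size; top concentration of the series not given in the record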
# Target sequence (P25779 123-467 limits assumed): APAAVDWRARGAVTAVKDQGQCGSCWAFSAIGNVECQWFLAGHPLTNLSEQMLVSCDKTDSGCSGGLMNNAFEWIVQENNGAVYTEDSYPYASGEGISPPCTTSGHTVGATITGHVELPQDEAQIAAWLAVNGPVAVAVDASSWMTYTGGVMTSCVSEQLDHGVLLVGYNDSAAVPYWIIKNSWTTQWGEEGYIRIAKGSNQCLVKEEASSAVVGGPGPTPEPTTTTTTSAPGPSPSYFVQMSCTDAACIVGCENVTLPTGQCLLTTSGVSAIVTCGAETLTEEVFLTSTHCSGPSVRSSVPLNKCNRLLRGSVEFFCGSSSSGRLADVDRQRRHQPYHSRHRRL
#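 Purified cruzain at 1.5 nM, pre-incubated 15 min with compound at room temperature in 100 mM sodium acetate pH 5.5, 5 mM DTT, 0.00005% Triton X-100. Reaction started with 2 uM Z-FR-AMC; AMC fluorescence increase over 60 s gives rate.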
# Cruzain inh Det: cruzain (T. cruzi) inhibition with detergent | P25779 | purified cruzain, Z-FR-AMC fluorescence, 0.01% Triton | Potency, µM, for inactives: max response, negative = inhibition, hits mostly inhibitors | hit rate 0.43% among 200,000; active = well fitted curve in the direction sought with a large enough effect; inconclusive = small, poorly fitted or top-dose-only effect, or another doubt; inactive = no such curve, though single readings can be large; an effect the other way counts as inactive or inconclusive;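 note: plate controls were neutral wells for no effect and buffer without enzyme for full effect; nearly all actives have a fitted effect of over 40% in size; top concentration of the series not given in the record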
#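 In this qHTS format, compounds are incubated with 1.5 nM cruzain for 15 min at room temperature before 2 uM Z-FR-AMC is added. Release of AMC is followed at 360/450 nm, and progress is taken as the 60 s fluorescence difference.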
# The depositor's hits bear a star; ? = inconclusive; . = not tested or not shown; & = joins results of further samples; [ ] = dose if it differs, or a comment. Unless noted, calls come from the whole dose curve; as a rule, active means well fitted rising curve with a large enough effect; inconclusive means small, poorly fitted or top-dose-only effect; inactive means no such curve, though single readings can be large or run the other way. Potency is the fitted concentration of half-maximal effect. Random draw from the library; 4.7% or so of the library scored in one or more.
# Second line of a record: Marburg entry inh, Lassa entry inh, RE007 growth inh, NS1 function inh, StopGo reporter, SARS PLP yeast, Cruzain noTriton, Cruzain inh Det
NNC(=O)Cn1cnc2ccccc21
    -4%[46.1 µM], -7%[46.1 µM], -7%, 0%, -17%, -5%, ., .
CCn1ncc(C(=O)Nc2cc(C)on2)c1C
    2%, 22%, -12%, -2%, 62%[activator], -1%, 0%, -2.5%
Cc1ccc(Nc2ncnc3ccccc23)cc1
    -17%[46.1 µM], -18%, 3%, -35%, 18%, -1%, ., .
CC1(C)CC(=O)c2cc(OCC(=O)NCCCN3CCN(c4ccc(F)cc4)CC3)ccc2O1
    23µM*, ?, 13%, 5%, ?, 6%, -3%, -1.6%
C=CCNc1nc(C(=O)OCC(=O)c2ccccc2)cs1
    ., ., 2%, -5%, 23%, 1%, ., .
COc1ccc(Cl)cc1NC(=O)CN1C(=O)CSc2ccc(S(=O)(=O)N3CCCC3)cc21
    ., 14%[46.1 µM], ., ., -5%, ., -9%, 1.5%
CCOC(=O)c1c(C)n(-c2ccccc2)c2ccc(OC(=O)c3ccccc3Cl)cc12
    ., 11%[46.1 µM], ., ., -16%, ., 2%, -2.0%
Cc1ccccc1OCCOC(=O)c1nc2nccc(C)n2n1
    4%[46.1 µM], 12%, 52%, ., 12%, -3%, ., .
Cc1ccccc1/C=c1\s/c(=C\C(=O)C(C)(C)C)[nH]c1=O
    ?, ?, -12%, 6%, ?, 10%, 13%, -9.2%
COc1ccccc1/C=C1/C(=O)ON=C1C
    ., ., 15%, 3%, -19%, 3%, ., .
CCOC(=O)c1c(SCC(=O)Nc2cccc(C)c2C)nc(=O)[nH]c1C
    ., -20%[46.1 µM], ., ., -12%, ., 5%, 0.7%
Cc1cc(C)n(-c2nc3c(c(=O)[nH]c(=O)n3C)n2CC(C)C)n1
    -18%, 7%, 10%, -11%, 0%, 2%, 5%, 2.8%
CCN(CCn1cccn1)C(=O)C1CCC(=O)N(CCN2CCOCC2)C1 (stereo not drawn)
    0%, 1%, -3%, -5%, -21%, -4%, ., .
Nc1ccc(Nc2nc3ccccc3[nH]2)cc1
    ?, ?, 1%, 12%, -14%, 6%, ., .
CCCc1c(C(=O)NNc2cccc(Cl)c2)cnn1-c1ccccc1
    ., ., 45%, -61%, 1%, -2%, ., .
CCCC1=C(C(=O)OCC)C(c2cc(Cl)cc(OC)c2OCC(=O)OCC)NC(=O)N1 (stereo not drawn)
    ?, ?, 4%, -41%, ?, 0%, 3%, -10%
Cc1nn(-c2ccc(N3CCOCC3)nn2)c(C)c1CCC(=O)N1CCN(C)CC1
    -3%[46.1 µM], 9%[46.1 µM], 6%, 1%, -7%, -1%, ., .
Cc1ccc(NC(=O)C2CCCN(S(=O)(=O)c3ccc4c(c3)CCCC(=O)N4)C2)cc1N(C)C (stereo not drawn)
    ., -22%[46.1 µM], ., ., ?, ., 17%, -2.7%
COc1ccc(Nc2cc(=O)oc3ccccc23)cc1
    ., -1%, -22%, -7%, 7%, -7%, -24%, -2.9%
CCOC(=O)c1ccc(-n2c(N)c(C(=O)NCc3ccco3)sc2=S)cc1
    4%, 3%, 4%, -30%, 4%, -11%, ?, -5.5%
CC(NCC(O)c1ccc([N+](=O)[O-])cc1)C12CC3CC(CC(C3)C1)C2 (stereo not drawn)
    ?, ?, -10%, -39%, ?, -2%, ., .
O=c1/c(=C\c2ccc(O)cc2)sc2n1C(c1ccccc1)C(c1ccccc1)=NN=2 (stereo not drawn)
    -1%, -20%, 6%, ?, ?, -6%, 25µM*, -2.8%
Cc1ccc(Nc2nc(N)nc(CN3CCCCCC3)n2)c(C)c1
    -4%, 1%, -18%, -5%, -16%, 1%, -9%, -0.9%
O=C(O)c1cccc(-n2c(/C=C/c3ccc([N+](=O)[O-])cc3)nc3ccccc3c2=O)c1
    ., ., 19%, 6%, -20%, -1%, ., .
COc1ccc(-n2c(C)cc(/C=N/Nc3nc(N4CCOCC4)nc(N4CCOCC4)n3)c2C)cc1
    7.3µM*, ?, 14%, 13%, ?, 15%, ?, -9.0%
COc1ccc(NC(=O)NC(C)(C(F)(F)F)C(F)(F)F)cc1
    29%, -9%, -23%, 9%, -17%, 10%, 4%, 5.2%
O=C1CC(c2ccccc2)Cc2[nH]c(=O)c(C(=O)Nc3cccc(F)c3)cc21 (stereo not drawn)
    ., ?, ., ., -2%, ., 5%, 0.0%
c1ccc(CN2CCN(C3=Nc4cccc5cccc3c45)CC2)cc1
    ?, -17%, 5%, -50%, 18%, 1%, -10%, -7.4%
Clc1ccc(-c2ccc(CNCc3ccccn3)o2)cc1
    ., ., -7%, 4%, 50%[activator], -6%, ., .
CCN(CC)c1ccc(/C=C2/SC(=O)N(C(C)C)C2=O)o1
    ?, ?, ?, -45%, 11%, -89%, -8%, -7.4%
COc1ccccc1NC(=O)CN1CCN(c2ccc(F)cc2)CC1
    16%[46.1 µM], ?, -14%, ., -12%, ., ., .
O=C1N[C@@H](Cc2ccccc2)C(=O)N1CCN1CCOCC1
    3%, -11%, 1%, 2%, 6%, -3%, -3%, 4.0%
Brc1ccccc1C1=Nn2c(nnc2-c2ccco2)SC1
    -9%[46.1 µM], -3%[46.1 µM], 8%, -4%, -9%, 2%, ., .
CCOC(=O)Cn1c(=NC(=O)c2cccs2)sc2cc(C(=O)OC)ccc21
    ?, ?, -10%, 29%, 21%, -4%, ?, -7.8%
Cc1nc(N2CCOCC2)c2c(C)c(C(=O)Nc3ccccc3C(F)(F)F)sc2n1
    2%[46.1 µM], 2%, 13%, ., -16%, -7%, ., .
O=C(COC(=O)C1CCN(S(=O)(=O)c2ccc3c(c2)OCCO3)CC1)NC1CCS(=O)(=O)C1 (stereo not drawn)
    ?, -13%, -26%, ., -31%, 1%, ., .
CCCNC(=O)C12CCC(C)(C(=O)O1)C2(C)C (stereo not drawn)
    ., ., -9%, 3%, 9%, 1%, ., .
CC1(C)CC2CC(C)(CN2CC(=O)C(C#N)c2ccccc2)C1 (stereo not drawn)
    6%, ?, 1%, -3%, ., 10%, -9%, -0.3%
Nc1nnc(CC2=CCCCC2)s1
    -7%, 13%, 3%, 10%, -19%, -2%, -9%, 2.2%
COC(=O)C1C(=O)C=C(Nc2ccc(F)cc2F)CC1c1ccc(OC)cc1 (stereo not drawn)
    ?, -24%, 6%, -17%, 49%[activator], 9%, -12%, -1.4%

# A draw from above in order of heavy-atom count, rising:
# Second line of a record: Marburg entry inh, Lassa entry inh, RE007 growth inh, NS1 function inh, StopGo reporter, SARS PLP yeast, Cruzain noTriton, Cruzain inh Det
Brc1ccccc1C1=Nn2c(nnc2-c2ccco2)SC1
    -9%[46.1 µM], -3%[46.1 µM], 8%, -4%, -9%, 2%, ., .
CC1(C)CC2CC(C)(CN2CC(=O)C(C#N)c2ccccc2)C1 (stereo not drawn)
    6%, ?, 1%, -3%, ., 10%, -9%, -0.3%
COc1ccccc1NC(=O)CN1CCN(c2ccc(F)cc2)CC1
    16%[46.1 µM], ?, -14%, ., -12%, ., ., .

# Going on with the list:
# Second line of a record: Marburg entry inh, Lassa entry inh, RE007 growth inh, NS1 function inh, StopGo reporter, SARS PLP yeast, Cruzain noTriton, Cruzain inh Det
CCN(CC)CCCNC(=O)c1ccc(Cl)c(S(=O)(=O)Nc2ccccc2OC)c1
    -13%, 0%, 1%[3.69 µM], 12%, 2%, 4%, -3%, 5.3%
CCCCn1c2nc3ccccc3nc2c2c(=O)n(CCC(C)C)cnc21
    10%, 5%, 7%, 6%, ., 7%, -2%, 3.0%
CCOc1ccc(-n2cc(C(=O)N3CCC(C)CC3)c3cc(OC)c(OC)cc3c2=O)cc1
    -12%, -6%, -10%, -18%, -2%, -10%, 14%, -1.8%
CC1CCN(C(=O)Cn2cnc3c2c(=O)n(C)c(=O)n3C)c2ccccc2S1 (stereo not drawn)
    -3%[46.1 µM], ?, -5%, -6%, 0%, 6%, ., .
Cc1ccc(N2C(=O)CC(Sc3cccs3)C2=O)cc1 (stereo not drawn)
    ., ., ?, -73%, -6%, -6%, ., .
Cc1ccc(OCCOCCN2CCN(C)CC2)c([N+](=O)[O-])c1
    ., ., 9%, -3%, -1%, 1%, ., .
CSc1ccc(CN(C)C(=O)c2cc3ccccc3o2)cc1
    28%[46.1 µM], 16%, 35%, -32%, 13%, 0%, ., .
O=C(NCc1cccs1)c1ccccc1
    -1%, 13%, 11%, -3%, 25%, -8%, -6%, 5.3%
CCOC(=O)n1c(=O)n(Cc2ccc(OC)cc2)c2ccccc21
    ?, ?, 43%, -4%, -10%, 0%, ., .
COc1ccc(S(=O)(=O)Cc2ccc(C(=O)N3CCN(c4cc(Cl)ccc4C)CC3)o2)cc1
    ., ., -1%, -39%, ?, -8%, ?, -5.0%
O=C(COC(=O)/C=C/C(=O)OCC(=O)Nc1ccccc1F)Nc1ccccc1F
    ., ., 2%, 2%, -23%, 0%, ., .
CC(=O)Nc1cccc(-c2nc3ccccc3[nH]2)c1
    6%[46.1 µM], 0%, -29%, ., 36%[activator], 4%, ., .
Cc1ccc(S(=O)(=O)C(CNC(=O)c2ccccc2F)c2cccs2)cc1 (stereo not drawn)
    ., -14%[46.1 µM], ., ., 12%, ., -12%, 2.0%
CCOc1ccc2nc(COC(=O)c3ccncc3)c(C(=O)c3ccccc3)[n+]([O-])c2c1
    ., ., -9%, -4%, 59%[activator], 0%, ., .
O=C(NCc1ccccc1)c1ccc2c(c1)C(=O)N(CC1CCCO1)C2=O (stereo not drawn)
    8%, 13%, 28%, -7%, 16%, 3%, -7%, 1.6%
CCN1C/C(=C\c2cc(OC)c(OC)c(OC)c2)C2=NN(c3ccccc3)C(c3cc(OC)c(OC)c(OC)c3)C2C1 (stereo not drawn)
    14%, -4%, -19%, ., -25%, ., ., .
CC1(C)CC(=O)C(C=N)=C(O)C1
    5%&5%[46.1 µM], 9%, -1%, 8%, -15%, -1%, -6%, 3.8%
